GLA inh pH 4.5 – blocks human alpha-galactosidase A at pH 4.5. purified enzyme, 4-MU-alpha-Gal fluorescence, pH 4.5. P06280. 230,000 tested, under 10 active. AID 1467. activity change, negative = inhibition, % at 105 µM; inconclusive = small, poorly fitted or top-dose-only inhibition, or a rising curve; inactive = flat fitted curve, though single readings scatter; no compound was filed as active;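 further: 0% = full activity with enzyme and -100% = basal without enzyme; dose as in the result columns while the protocol names 77 µM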
Target sequence (P06280 whole entry, looked up): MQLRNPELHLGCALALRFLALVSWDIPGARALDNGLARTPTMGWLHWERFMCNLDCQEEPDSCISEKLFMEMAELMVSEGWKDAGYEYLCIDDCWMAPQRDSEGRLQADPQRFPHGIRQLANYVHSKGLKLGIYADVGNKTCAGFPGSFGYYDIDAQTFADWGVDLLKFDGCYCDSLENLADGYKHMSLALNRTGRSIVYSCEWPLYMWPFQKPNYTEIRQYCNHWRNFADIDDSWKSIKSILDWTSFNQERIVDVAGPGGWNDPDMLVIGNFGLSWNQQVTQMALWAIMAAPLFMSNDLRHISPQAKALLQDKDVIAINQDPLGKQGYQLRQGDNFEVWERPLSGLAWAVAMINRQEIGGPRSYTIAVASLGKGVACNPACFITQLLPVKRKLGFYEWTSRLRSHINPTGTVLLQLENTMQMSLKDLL
Rango-impB inh – inhibitors of Rango-importin beta complex formation. Rango CFP/YFP FRET sensor + importin beta, 45 min. Potency, µM (titrated, usually from 92.2 µM), inactives show top-dose inhibition of complex formation. 0.031% of 340,000 active; active = rising FRET ratio curve, often small or poorly fitted; inconclusive = mostly compound fluorescence or quenching in the first reads; inactive = flat curves in all reads;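 further: potency means the concentration at half of the fitted maximal effect; 0% = DMSO wells and 100% = buffer wells lacking importin beta; nearly all actives have a fitted effect of over 15% in size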
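FRET biosensor Rango (snurportin 1 IBB between N-terminal EYFP and C-terminal Cerulean), 50 nM in PBS/1 mM DTT/0.02% Tween-20/0.1% BSA, preincubated 5 min RT with compound; 0.125 microM importin beta added, 45 min RT, CFP/YFP FRET ratio read.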
Rango dissoc inh – prevents RanGTP from dissociating the Rango-importin beta complex. AID 540253. Biochemical FRET Rango-importin beta, RanGTP-induced dissociation. 0.071% of 340,000 active. Potency, µM (doses to about 46.1 µM), inactives show top-dose activity change, negative = inhibition. O95149+P62826; active means falling FRET ratio curve, often poorly fitted, with flat reads before Ran was added; inconclusive means other falling curves, or compound fluorescence or quenching; inactive means flat or rising ratio curve;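 further: potency means the concentration at half of the fitted maximal effect; % of control where 0% means no effect; nearly all actives have a fitted effect of over 45% in size; -100% = wells without RanGTP and RCC1; the record marks most hits as doubtful in a second field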
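Compounds preincubate 5 min with complex of recombinant Rango and importin beta in PBS with 1 mM DTT. Ran (0.6 uM) loaded with 2 mM GTP plus 0.2 uM RCC1 starts dissociation; FRET is recorded 45 min later.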
miR-21 FLuc – miR-21 reporter, rising signal; HeLa miR-21 FLuc reporter, luciferase, 48 h; Potency, µM (highest dose often 38.3 µM), for the others: at the highest dose reporter change, positive = more light; 340,000 tested, under 10 active; AID 2288; active = well fitted rising curve with a large enough effect; inconclusive = small, poorly fitted or top-dose-only effect; inactive = no such curve, though single readings can be large or run the other way;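 further: % of control where 0% means no effect; miR-21 action dims this reporter so a rising signal means less miR-21 action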
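Using DMEM plus 10% FBS, HeLa miR-21-FLuc cells are incubated with test compounds (final up to about 40uM) for 48 hours; firefly luciferase signal is then imaged following reagent-mediated lysis.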
The depositor's hits bear a star; ? = inconclusive; . = no result given; & = joins results of further samples. Some of the compounds tested, so the mix of outcomes need not match the whole.

Each structure is followed by: GLA inh pH 4.5	Rango-impB inh	Rango dissoc inh	miR-21 FLuc
CCN(CC)CCOc1ccc(Br)cc1
 : 6	1.2%	-2%	-5%
O=C(O)c1ccc2c(c1)C(=O)N(c1cccc(-c3nc4ccccc4s3)c1)C2=O
 : 1	-1.9%	13%	-34%
Cc1cc(=O)oc2cc(OCc3ccc(C(=O)OCC(=O)Nc4ccccc4OC(F)F)cc3)ccc12
 : 8	-2.1%	21%	-8%
O=C(Nc1ccc2c(c1)CCCN2C(=O)c1cccs1)c1c(F)cccc1F
 : .	3.4%	1%	15%&21%
COc1cccc(CNS(=O)(=O)c2ccc3c(c2)CC(C)N3C(C)=O)c1 (stereo not drawn)
 : .	-3.3%	-12%	2%
CCOc1ccc(NS(=O)(=O)c2ccc3c(c2)N(C(C)=O)CCO3)cc1
 : .	0.1%	0%	2%
O=C(COC(=O)[C@H](Cc1ccccc1)NC(=O)c1ccco1)Nc1ccccc1OC(F)F
 : .	-0.2%	13%	.
Cc1ccc(CNC(=O)[C@H](C)[C@H]2C[C@]2(C)[C@H](NC(=O)OCc2ccccc2)c2ccccc2)o1
 : 10&-1	-3.5%	9%	8%
COCCn1nnnc1C(c1ccccc1)N1CCN(C)CC1 (stereo not drawn)
 : -10	-4.5%	9%	0%
O=Cc1c(-[n+]2ccccc2)nc([O-])n1-c1ccccc1
 : 4	0.4%	1%	-3%
C=CCOC(=O)C1=C(C)OC(N)=C(C#N)C1c1ccc2c(c1)OCO2 (stereo not drawn)
 : -4	-3.7%	-12%	-8%
CC1(C)Cc2c(cnn2-c2ccccc2)-c2c1c1ccccc1n2CC(O)CCl (stereo not drawn)
 : ?	?	-28%	18%
COc1ccc2cc(C3c4cc(OC)c(OC)cc4CCN3C(=O)c3ccco3)c(=O)[nH]c2c1 (stereo not drawn)
 : .	0.3%	-6%	-6%
c1ccc2c(N3CCOCC3)nc(N3CCOCC3)nc2c1
 : ?	-6.3%	-24%	-14%
CCOc1ccccc1NC(=O)C(=O)N/N=C/c1ccc([N+](=O)[O-])cc1
 : -1	-0.8%	16%	5%
O=c1c2c3c(sc2n2cnnc2n1Cc1ccccc1)CN(Cc1ccccc1)CC3
 : 0	-0.9%	-5%	-4%
CCc1ccc(C(c2ccc(CC)cc2)C(Cl)Cl)cc1
 : .	3.6%	8%	.
Oc1ccc(Cl)cc1CNn1cnnc1
 : 5	-0.3%	-3%	0%
O=C1c2ccccc2C(=O)N1CCSc1n[nH]c(=S)s1
 : -23	5.5%	-2%	-7%
CCN(CC)S(=O)(=O)c1ccc(C(=O)Nc2ncn(Cc3ccccc3)n2)cc1
 : -5	-0.4%	14%	-5%
COCCn1c(SCC(=O)N2CCCCCC2)nc2c(c1=O)SCC2
 : .	0.3%	-22%	3%
Cc1cc(-c2ccco2)n(CC(=O)NCCCc2ccccc2)n1
 : -3	-0.2%	-4%	-7%
CC(C)c1nc(SCC(=O)N2CCOCC2)c2c(=O)n(C)c(=O)n(C)c2n1
 : 8	-1.0%	-10%	-2%
NC(=O)c1nnsc1Sc1c(C(N)=O)nnn1-c1cccc(N)c1
 : -6	0.0%	10%	?
C#CCOCCOCCOCCNc1nc(N2CCN(C(=O)Cn3cc(CCCCN)nn3)CC2)nc(N2CCN(C(=O)[C@H](CCCCN)n3cc(CCC(=O)O)nn3)CC2)n1
 : .	-0.5%	-12%	.
COc1ccc(CCCc2nnc(SCC(=O)Nc3ncc(C)s3)o2)cc1
 : 12	2.4%	10%	-2%
CC1(c2ccccc2Cl)NC(=O)N(CC(=O)c2ccc3c(c2)OCO3)C1=O (stereo not drawn)
 : .	3.0%	-18%	.
COc1cccc(COCC(O)Cn2cnc3cc(C)c(C)cc32)c1 (stereo not drawn)
 : 5	-3.1%	12%	-7%
Nc1ccc(-c2c3ccc(=O)cc-3oc3cc(O)ccc23)c(C(=O)O)c1
 : .	?	?	.
CC(C)[C@H](NC(=O)N1CCn2c1nc1ccccc12)C(=O)N[C@H](C(=O)O)c1ccccc1
 : .	2.4%	-8%	1%
Cc1cc(-c2nnc(SCC(=O)Nc3ccccc3C(F)(F)F)o2)c(C)n1-c1ccccc1
 : -8	-1.4%	7%	-55%
Cc1cc(Nc2ccccc2O)c2ccccc2n1
 : -7	-2.0%	4%	2%
O=C(c1ccccc1)N(C1=NCCCCS1)c1ccccc1
 : 10	5.1%	43%	-5%
CC1CCCCN1C(=O)COC(=O)c1cc([N+](=O)[O-])ccc1N (stereo not drawn)
 : .	-0.1%	-22%	.
O=C(c1ccc(COc2ccc(Cl)cc2)cc1)N1CCCCC1
 : -4	0.7%	1%	-29%
COc1ccc(-n2c(C)c3c(OC)cccc(=O)c3c2C)cc1
 : -2	?	?	-4%
COc1ccc(C2=NNC(=O)CC2)cc1
 : -3	2.6%	16%	-12%
Cc1ccccc1NC(=O)Cn1c(NCC(C)O)nc2ccccc21 (stereo not drawn)
 : 4	?	3%	-1%
O=C(COC(=O)Cn1cnc2ccccc21)NCCc1ccc(Cl)cc1
 : -9	-2.2%	1%	-3%
O=C(COC(=O)C12CC3CC(CC(C3)C1)C2)Nc1nccs1
 : 5	-0.2%	-3%	-2%
Cc1cccc(NC(=O)COC(=O)c2cccc3c2C(=O)c2ccccc2C3=O)c1C
 : -12	3.4%	0%	?
O=C(CN1CCCCCC1)N/N=C/c1cccc(Cl)c1Cl
 : 1	-0.8%	9%	-28%
CCc1cc2c(NCC3CCCO3)nc(C)nc2s1 (stereo not drawn)
 : 5	3.1%	1%	6%
CCn1c2ccccc2c2cc(NC(=O)CSc3nnc(-c4cccc(C)c4)o3)ccc21
 : -5	-2.0%	-11%	?
CCOc1ccccc1C(=O)N[C@H](C(=O)Nc1ccc(OC)c(S(=O)(=O)N2CCOCC2)c1)C(C)C
 : -4	-2.9%	8%	4%
Cc1cc(C(=O)Nc2c(F)c(F)c(F)c(F)c2F)n(-c2ccccc2)n1
 : 4	2.3%	28%	1%
CCCCc1nc(C(N)=O)c2[nH]c(=O)n(-c3ccccc3F)c2n1
 : .	-3.1%	-20%	-9%
Cc1ccccc1CSCC(Nc1ccc(C(=O)O)cc1[N+](=O)[O-])C(=O)O (stereo not drawn)
 : 3	-2.1%	1%	-2%
Cc1ccc(O)c(CNc2cccc(C)n2)c1
 : .	0.0%	-4%	-26%
CC(C)(C)NC(=O)CN(C(=O)CS(=O)CC(=O)Nc1ccc(F)cc1)c1ccc2c(c1)OCCO2 (stereo not drawn)
 : -10	0.0%	-17%	-5%

Later entries:
Each structure is followed by: GLA inh pH 4.5	Rango-impB inh	Rango dissoc inh	miR-21 FLuc
CN(C)CCOc1ccc(-c2c(-c3ccsc3)sc3ccccc23)cc1
 : .	1.4%	1%	.
O=C(CSc1n[nH]c(=O)n1Cc1ccccc1)Nc1ccc(N2CCOCC2)cc1
 : .	3.5%	5%	.
CCOC(=O)c1ccc(N2C(=O)c3n[nH]c(C)c3C2c2ccc(O)cc2)cc1 (stereo not drawn)
 : -1	0.0%	-8%	-30%
O=C(c1cccs1)N1CCN(c2ncc(C(F)(F)F)cc2Cl)CC1
 : .	0.8%	15%	-19%
CCCOc1ccc(N2CC(C(=O)Nc3ccc(N4CCOCC4)cc3)CC2=O)cc1 (stereo not drawn)
 : 6	-1.1%	0%	2%
Cc1cccc(C(=O)N/N=C/c2ccc3c(c2)OCO3)n1
 : -3	0.0%	-7%	-8%
CC(=O)N1c2ccc(S(=O)(=O)NCC3CCC(C(=O)Nc4ccc(C)cn4)CC3)cc2CC1C (stereo not drawn)
 : .	-0.5%	3%	29%
Cc1ccc(NC(=O)CCC(=O)c2cccs2)c(Br)c1
 : .	-2.8%	-6%	-53%
CCOC(=O)C1=C(N)n2c(s/c(=C\c3ccncc3)c2=O)=C(C(=O)OCC)C1c1ccncc1 (stereo not drawn)
 : 5	-1.0%	-1%	-4%
O=C(Nc1ccccc1C(=O)O)c1ccccc1
 : 1	2.3%	2%	-17%
CCOC(=O)C1CCCCN1Cc1ccc(OC)c(OC)c1OC (stereo not drawn)
 : -2	?	-9%	1%
O=C(NC1CCN(C(=O)Nc2cccc(Cl)c2)CC1)c1ccccc1
 : .	4.7%	-21%	1%
Cn1c(=O)c2c(SCc3cccnc3)nc(C3CC3)nc2n(C)c1=O
 : 5	0.5%	17%	-7%
COc1ccc(OC)c(-c2csc(N(CC3CCCO3)C(=O)C3CCCCC3)n2)c1 (stereo not drawn)
 : 1	0.6%	7%	-6%
N#Cc1cccc(NC(=O)CC2CCCC2)c1
 : .	2.2%	-1%	-21%
CCC1CCC(N2CCN(c3cccc(OC)c3)CC2)CC1 (stereo not drawn)
 : .	5.7%	-15%	2%
Cc1ccc(N2CN(Cc3ccco3)CNC2=S)cc1
 : -3	-4.2%	2%	-1%
CCCn1c(SCC(=O)c2cc(C)ccc2C)n[nH]c1=O
 : -13	-0.5%	24%	4%
CN1CCN(CCc2nc3cc(NC(=O)c4ccco4)ccc3n2C)CC1
 : 4	-2.1%	13%	-2%
Cc1onc(-c2ccccc2)c1C(=O)OCc1nnc(-c2ccc([N+](=O)[O-])cc2)o1
 : .	-1.2%	5%	.
CCC(C(=O)O/N=C(\N)c1ccccc1)c1ccccc1 (stereo not drawn)
 : -3	-2.3%	5%	-1%
S=C(Nc1ccccc1)Nc1ccc2ccccc2c1
 : .	-0.6%	11%	.
O=C(CN1CCc2ccccc2C1)Nc1cc(S(=O)(=O)N2CCOCC2)ccc1N1CCCC1
 : -2	1.2%	-2%	9%
Cc1ccc(OCC(=O)NCc2ccco2)c([N+](=O)[O-])n1
 : -11	-8.0%	9%	-7%
Cn1cccc1Cc1nnc(SCC(=O)Nc2ccc(Cl)cc2)n1-c1ccc(F)cc1
 : -1	-1.3%	0%	0%
COc1ccccc1N1CCN(C(=O)c2ccccc2SCC(=O)N2CCCC2)CC1
 : .	-0.4%	30%	.
COc1cc(/C=C/C(=O)OCC(=O)N2CC3(C)CC2CC(C)(C)C3)ccc1O (stereo not drawn)
 : -7	?	-22%	2%
Fc1cccc(CCN2C(=S)NC[C@@H]2Cc2ccccc2)c1
 : 1	1.6%	-22%	8%
COc1ccc(Cl)cc1NC(=O)CN(C)C(=O)Cn1[nH]c(=O)c2ccccc2c1=O
 : .	1.3%	1%	.
CC(OC(=O)c1ccc([N+](=O)[O-])o1)C(=O)Nc1nc(-c2ccc(F)c(F)c2)cs1 (stereo not drawn)
 : .	-0.6%	8%	.
CCCCNS(=O)(=O)c1ccc(S(=O)(=O)N2CCC3(CC2)OCCO3)cc1
 : -3	0.0%	5%	1%
COc1cc(N=CC2=C(O)c3ccccc3C2=O)cc(OC)c1
 : 3	-1.8%	2%	-31%
CCOc1cccc(-c2c(C(=O)N/N=C/c3ccsc3)nnn2-c2nonc2N)c1
 : .	1.1%	0%	-5%
Cc1cccc(-c2nc(C#N)c(NCc3ccco3)o2)c1
 : -5	-0.1%	-9%	-53%
CCOC(=O)N1CCN(C(=O)CCCCCn2c(=S)[nH]c3cc4c(cc3c2=O)OCO4)CC1
 : -5	-6.3%	-11%	-2%
O=C(COC(=O)c1ccccc1C(=O)c1ccc(Cl)cc1)NCC1CCCO1 (stereo not drawn)
 : -9	?	2%	-2%
CN(CC(=O)Nc1ccccc1Br)CC(=O)NC(c1ccccc1)c1ccccc1
 : .	2.6%	11%	.

Source: PubChem
